# HNF4A DNA FP: change in binding of human HNF4A to DNA, primary screen, biochemical, fluorescence polarization, FITC-DNA; 1 h; activity change, % at 10 µM; actives 0.3% (n = 360,000); in the data active = activity change above about 30%, passing the limit was not always enough;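 also: controls were the assay level and a saturating level of protein; the project sought stronger binding though the title names inhibitors; some compounds called inactive have numbers as strong as hits; positive values seem to mean higher polarization but the record does not say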
# FGF22 binding: binders of human FGF22 protein, primary screen, FGF22 synaptogenesis inhibitor project, biophysical, thermal shift, single point; actives 1.5% (n = 340,000); Fibroblast growth factor 22 (Homo sapiens), Q9HCT0; recombinant FGF22 thermal shift, SYPRO orange fluorescence; percent of sucrose octasulfate shift, DMSO zero; calls only at 9.99 µM; AID 651658, 2012;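 active = melting point raised past a set limit in the mean and every replicate; three in four hits are not shown here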
# Target sequence (Q9HCT0 whole entry, looked up): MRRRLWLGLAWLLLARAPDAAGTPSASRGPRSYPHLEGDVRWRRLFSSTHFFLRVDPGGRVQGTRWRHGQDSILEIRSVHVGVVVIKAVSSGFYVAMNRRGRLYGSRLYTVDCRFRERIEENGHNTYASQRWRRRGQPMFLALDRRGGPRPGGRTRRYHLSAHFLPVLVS
# E coli growth: E. coli growth inhibition, primary screen, OD600 | Escherichia coli growth, 23 h; stronger effect = lower value | OD600 absorbance (test concentration not listed) | actives 0.21% (n = 330,000);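 active = OD600 absorbance below the run mean of sample wells minus 3.6 SD, in any replicate, cut at about 0.56 in these data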;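 also: stock transfer was 300 nL into about 60 µL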
# UCH37 DUB inh: inhibitors of human UCH37 deubiquitinase, primary screen, biochemical, Ub-AMC cleavage, fluorescence; inhibition, % (test concentration not listed); Ubiquitin carboxyl-terminal hydrolase isozyme L5 (Homo sapiens), Q9Y5K5; actives 0.33% (n = 330,000); purified proteasome/UCH37;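 active = mean of two replicates above 20%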;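 also: 0% = compound-free wells with enzyme and 100% = wells lacking proteasome; stock transfer was 100 nL into about 20 µL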
# Target sequence (Q9Y5K5 whole entry, looked up): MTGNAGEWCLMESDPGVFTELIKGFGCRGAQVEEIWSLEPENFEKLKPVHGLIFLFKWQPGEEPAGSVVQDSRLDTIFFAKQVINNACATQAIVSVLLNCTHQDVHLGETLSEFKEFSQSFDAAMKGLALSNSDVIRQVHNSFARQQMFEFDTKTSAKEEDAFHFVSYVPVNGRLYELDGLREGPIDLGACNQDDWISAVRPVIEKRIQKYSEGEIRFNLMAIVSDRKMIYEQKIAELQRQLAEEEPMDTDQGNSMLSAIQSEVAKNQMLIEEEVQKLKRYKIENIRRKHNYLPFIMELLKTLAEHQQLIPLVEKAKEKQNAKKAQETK
#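 Material: Human UCH37 enzyme supplied as purified proteasome complex | Schedule: 30 min preincubation with enzyme, 25 min cleavage at room temperature | Detection: AMC fluorescence 355/460 nm | Measure: % inhibition of Ub-AMC cleavage fluorescence | Controls: Wells without proteasome as full block, compound-free enzyme plus substrate as uninhibited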
# ALR H2O2 inh: inhibitors of human ALR sulfhydryl oxidase, primary screen, biochemical, H2O2 detection, HRP-luminol luminescence, single point | actives 3.8% (n = 290,000) | FAD-linked sulfhydryl oxidase ALR (Homo sapiens), P55789 | AID 485317, 2010 | purified ALR, DTT oxidation | inhibition, % (test concentration not listed);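 active = mean and each replicate at 75% or more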;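 also: stock transfer was 7.5 nL into about 7.5 µL; 0% = neutral wells and 100% = wells with inactivated enzyme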
# Target sequence (P55789 whole entry, looked up): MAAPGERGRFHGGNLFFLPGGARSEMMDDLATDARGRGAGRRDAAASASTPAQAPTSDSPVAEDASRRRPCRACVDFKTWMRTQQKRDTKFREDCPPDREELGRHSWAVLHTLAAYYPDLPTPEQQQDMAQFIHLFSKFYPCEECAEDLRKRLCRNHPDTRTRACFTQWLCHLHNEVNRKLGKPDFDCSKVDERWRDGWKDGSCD
# LANA-H2B inh: blockers of LANA interaction with H2A/H2B – biochemical, FP readout, HTS, primary screen | Protein LANA1 (Human herpesvirus 8 type P (isolate GK18)), Q9QR71 | cell-free LANA-H2A/H2B peptide, fluorescence polarization | inhibition, % (no concentration beside the values) | actives 0.6% (n = 320,000); in the data active = inhibition mostly above about 10%, no sharp cut-off; inactive = mostly below about 6.7%;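 also: stock transfer was 7.5 nL into about 10 µL; 0% = median of vehicle wells and 100% = median of positive control wells; one replicate is shown; the record names a cut of 25% in any replicate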
# Beta2AR agonist: beta2AR agonists driving receptor internalization, primary screen, cell-based, FAP fluorogen, flow cytometry; Beta-2 adrenergic receptor (Homo sapiens), P07550; Am2.2-beta2AR cells; reference of the scale not given here; response, % (test concentration not listed); actives 0.43% (n = 340,000); AID 504454, 2011;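 active = response above a set limit, near 3 SD of response in nonfluorescent compounds, cut at about 42% in these data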;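 also: stock transfer was 100 nL into about 11 µL; a reference agonist was the positive control; negative values mostly stem from fluorescent compounds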
# An asterisk follows results filed as active; i = inactive; x = no result given. These rows are one share of the data. The share of hits here may be higher or lower than overall.
# Values run as follows: HNF4A DNA FP	FGF22 binding	E coli growth	UCH37 DUB inh	ALR H2O2 inh	LANA-H2B inh	Beta2AR agonist
> CCOc1ccc(CNS(=O)(=O)c2ccc3c(c2)CC(=O)N3C)cc1
    -4.0	i	0.71	6.1	-2	-2.6	0
> Nc1c(N(Cc2ccco2)C(=O)c2ccccc2F)c(=O)[nH]c(=O)n1Cc1ccccc1
    4.4	i	0.68	2.1	x	x	-1
> O=[N+]([O-])c1ccc(CS(=O)(=O)c2ccc(Cl)cc2)cc1
    -0.5	i	0.65	1.0	-11	1.7	-2
> CSc1ccc(S(=O)(=O)NCc2ccccc2Cl)cc1
    -4.8	x	0.69	6.4	-3	0.8	0
> CN(C)c1ccnc2sc3c(=O)n(Cc4ccccc4)cnc3c12
    1.5	x	0.69	-9.6	5	1.0	6
> CCC1SC(CC)C(=O)N(CC(=O)NC2CCCCC2)C1=O (stereo unspecified)
    -2.8	i	0.72	4.5	x	x	3
> CN(c1ncc(C(F)(F)F)cc1Cl)n1cc(C(=O)O)c2ccccc2c1=O
    -0.5	x	0.69	-3.2	1	2.3	-2
> O=C(N[C@@H](Cc1ccccc1)C(=O)O)c1ccncc1
    -2.8	i	x	5.4	-8	5.4	-7
> Cc1cc(N2CCN(c3nc4ccccc4s3)CC2)n2ncnc2n1
    6.2	x	0.75	1.4	-2	2.9	-18
> CC(C)(C)c1cc(NCCCn2ccnc2)n2ncc(-c3ccccc3)c2n1
    5.0	i	0.62	-128	22	-1.6	3
> O=C(C1CCN(S(=O)(=O)c2cccc3cccnc23)CC1)N1CCN(c2ccccn2)CC1
    -0.6	x	0.7	0.7	-2	0.9	24
> COc1ccc(CNc2ncnc(N)n2)cc1
    0.2	x	0.67	-1.2	-6	1.5	-10
> CCN(Cc1ccccc1)C(=O)Cn1c(=O)oc2ccccc21
    0.4	i	0.72	-0.5	2	0.8	-2
> CN1CCN(C(=O)C2=C[C@@H](c3coc4ccccc4c3=O)C[C@@H](OCc3ccc(CO)cc3)O2)CC1
    2.0	i	0.8	-5.7	-11	0.6	-6
> N#CC(C(=O)Nc1cccc(Cl)c1)=C1Nc2ccccc2N1
    1.1	x	0.71	-1.3	0	-4.0	-10
> CCOC(=O)Cc1csc(SCC(=O)NC(C)C23CC4CC(CC(C4)C2)C3)n1 (stereo unspecified)
    2.3	x	0.66	-0.8	x	x	8
> CS(=O)(=O)Nc1cccc(C2=NN(S(=O)(=O)c3ccccc3)C(c3ccco3)C2)c1 (stereo unspecified)
    4.6	i	0.73	3.7	-8	-0.2	-7
> Cn1c(SCC(=O)Nc2ccc3c(c2)OCCO3)nnc1-c1cccnc1
    0.0	i	0.7	0.9	x	0.4	-5
> Cc1c(C)n(C)c2ccc(C(=O)NCCCN3CCCCC3C)cc12 (stereo unspecified)
    5.0	i	0.7	1.4	17	-6.9	5
> O=C(NC1CCCCC1)C(c1cccs1)N(Cc1cccs1)C(=O)c1cccs1 (stereo unspecified)
    -0.1	x	0.73	3.0	-19	-0.4	7
> COc1ccc(N=C(C)c2sc3ccccc3c2O)cc1
    3.8	i	0.67	3.7	-14	-3.6	4
> CN(Cc1ccncn1)C(=O)C1CCC(=O)N(Cc2cccc(C(F)(F)F)c2)C1 (stereo unspecified)
    -2.6	i	0.65	-0.7	-1	-3.6	-2
> CCOc1ccc(S(=O)(=O)Nc2cccnc2)cc1
    0.0	x	0.71	0.4	1	-3.6	-9
> Cc1cc(C)cc(NC(=O)N2CCCC2C(=O)NCc2ccco2)c1 (stereo unspecified)
    0.7	x	0.65	1.9	-9	-3.1	-1
> O=C(c1ccc2c(c1)OCO2)N(Cc1cccs1)C1(C(=O)NC2CCCCC2)CCCCC1
    2.3	x	0.68	2.1	-3	x	7
> Cc1cccc(-c2nc3ccccc3c(=O)n2NC(=O)/C=C/c2ccc([N+](=O)[O-])cc2)c1
    0.1	i	0.71	3.8	0	0.2	14
> CC(C)(C)c1ccc(C(=O)NNC(=O)Cc2cccc3ccccc23)cc1
    2.4	x	0.7	1.1	-5	4.3	0
> CC(C)(C)c1ccccc1NC(=O)c1ccc(-n2cncn2)c([N+](=O)[O-])c1
    3.9	i	0.7	5.3	x	x	-1
> CCOc1ccc(N2CC(C(=O)Nc3nnc(CC)s3)CC2=O)cc1 (stereo unspecified)
    -2.7	i	0.71	6.7	36	-5.1	5
> O=C(O)c1ccc(S(=O)(=O)N2CCN(c3ccccn3)CC2)cc1
    -3.0	i	0.7	-0.4	2	4.1	-8
> CCOc1ccc(N(Cc2cc3cc(C)ccc3[nH]c2=O)C(=O)COC)cc1
    0.2	i	0.64	-5.1	x	-4.2	0
> CC(C)Oc1ccc(C2CC(=O)N(C)C2=O)cc1 (stereo unspecified)
    -2.4	i	0.68	5.2	-5	-8.9	2
> CCn1c(SCC(=O)N(C)C)nc2cc(S(=O)(=O)N3CCOCC3)ccc21
    -0.3	i	0.66	-0.2	x	2.9	1
> O=[N+]([O-])c1cc(C=Nc2ccc3ccccc3c2)ccc1Br
    0.3	i	0.61	-27	-7	-1.9	4
> Cc1nc(SCc2nc3c(C)cccc3[nH]2)c2oc3ccccc3c2n1
    5.9	i	0.7	0.7	-4	5.2	-6
> COc1ccc(CN2CCNC(=O)C2CC(=O)NCC2CCOCC2)c(C)c1C (stereo unspecified)
    -0.6	i	0.73	1.7	-3	-8.2	-7
> O=C(CN(C(=O)CCC(=O)Nc1ccccn1)C1CCCC1)NCc1ccccc1
    1.9	i	0.69	1.7	-3	-3.7	-7
> CCCCN(C)C(=S)Nc1ccc2nc(N3CCN(CC)CC3)cc(C)c2c1
    1.1	i	0.69	1.5	16	5.6	11
> CCCC[C@H]1COCCS(=O)(=O)N1Cc1ccc(F)cc1
    0.7	i	x	2.7	-4	-7.9	5
> CCOc1ccc(NC2=C(Cl)C(=O)N(C3CCCCC3)C2=O)cc1
    -0.7	i	0.73	-2.4	12	3.3	10
> N#C/C(=C(O)\C=C\c1ccccc1)c1nc2ccccc2[nH]1
    3.4	i	0.66	-45	-4	10	-14
> Cc1ccc(SCC(=O)Nc2cccc(S(=O)(=O)N3CCOCC3)c2)cc1C
    0.4	i	0.71	4.2	45	-1.4	-4
> Nc1nc(-c2cccnc2)nc(N2CCCCC2)n1
    0.1	x	0.69	5.2	-8	8.0	0
> COc1cc(NC(=O)COC(=O)c2cc(S(=O)(=O)N3CCOCC3)ccc2F)cc(OC)c1
    1.0	i	0.66	2.6	-3	-1.7	3
> CSCCC(C(=O)N(C)CC(=O)Nc1cccc(F)c1)N1C(=O)c2ccccc2C1=O (stereo unspecified)
    4.0	i	0.6	-0.6	-1	1.5	0
> O=C(CSc1nnc2c(n1)[nH]c1ccc(S(=O)(=O)N3CCOCC3)cc12)Nc1ccccc1Cl
    1.6	i	0.64	-0.8	-6	2.2	9
> O=C(O)c1ccc(Nc2nc(-c3cc4ccccc4oc3=O)cs2)cc1O
    1.6	i	0.65	-43	x	x	-18
> Cc1ccc(CNC(=O)Cc2nc3nc(C)cc(C)n3n2)cc1
    3.2	x	0.63	1.8	1	-2.8	-10
> O=S(=O)(Nc1ccccn1)c1ccc(C(F)(F)F)cc1Cl
    -0.7	i	0.66	0.8	-4	-0.4	-7
> CCOc1ccc(NC(=O)CN2CCC(n3cnc4cc(F)ccc43)CC2)cc1
    1.4	i	0.65	2.9	-30	-6.3	3
> COc1cccc(/C=N/NC(=O)CNC(=O)CCc2ccccc2)c1O
    -3.7	i	x	x	0	11	5
> CSc1nccc(Oc2cccc(C#N)c2)n1
    4.6	i	0.66	-0.3	-2	-0.5	-2
> CCOC(=O)c1cc2oc(C(c3nnnn3C3CCCCC3)N3CCOCC3)cc2[nH]1 (stereo unspecified)
    5.5	x	0.7	2.8	3	-1.5	-18
> COc1ccc(C(C[N+](=O)[O-])c2c(-c3ccccc3)cc3ccccn23)c(OC)c1 (stereo unspecified)
    5.9	x	x	x	-2	-3.9	30
> Cc1nnsc1C(=O)NC(=O)Nc1ccc(F)c(Cl)c1
    -1.0	i	0.67	4.9	-7	-0.4	10
> O=C(NCc1ccco1)C(c1ccccc1)N(Cc1ccccc1)C(=O)Cn1nnc2ccccc21 (stereo unspecified)
    -1.6	x	0.7	0.1	-3	-1.4	0
> C=CCNC(=O)/C(=C/c1cn(-c2ccccc2)nc1-c1cccc([N+](=O)[O-])c1)NC(=O)c1ccccc1
    -0.4	x	x	0.5	-1	5.5	-5
> CCN(CC)C(=O)CCS(=O)(=O)c1cccc2nonc12
    -1.4	i	0.68	2.2	3	0.2	-2
> Cc1ccc(Cl)cc1NC(=O)NCc1cccnc1
    1.4	i	0.66	2.2	-14	0.4	6
> Cc1ccc(C)c(NC(=O)CCn2nc(C)cc2C)c1
    -0.8	x	0.75	0.6	-1	-6.8	5

# Reprinted from the results shown for reference:
# Values run as follows: HNF4A DNA FP	FGF22 binding	E coli growth	UCH37 DUB inh	ALR H2O2 inh	LANA-H2B inh	Beta2AR agonist
> CCN(CC)C(=O)CCS(=O)(=O)c1cccc2nonc12
    -1.4	i	0.68	2.2	3	0.2	-2
> Cc1ccc(Cl)cc1NC(=O)NCc1cccnc1
    1.4	i	0.66	2.2	-14	0.4	6
> Cc1ccc(C)c(NC(=O)CCn2nc(C)cc2C)c1
    -0.8	x	0.75	0.6	-1	-6.8	5

# (more compounds)
# Values run as follows: HNF4A DNA FP	FGF22 binding	E coli growth	UCH37 DUB inh	ALR H2O2 inh	LANA-H2B inh	Beta2AR agonist
> CSCCC(C(=O)Nc1ccc2c(c1)OCO2)N1C(=O)c2ccccc2C1=O (stereo unspecified)
    -4.4	x	0.69	0.9	x	0.7	2
> CC(C)CCNC(=O)NC(=O)CSc1ncccn1
    1.4	x	0.65	2.5	-10	2.4	-4
> O=C(NCc1cccc(C(F)(F)F)c1)C1CC(c2ccccc2F)=NO1 (stereo unspecified)
    -1.3	i	0.67	4.4	x	-1.3	-2
> COC(=O)Cc1[nH]c(=O)[nH]c1C(=O)OC
    2.1	i	0.73	-0.4	21	-5.0	3
> NC(=O)C1CCN(Cc2nc(-c3ccccc3)no2)CC1
    0.5	x	0.71	4.8	-2	0.8	0
> CN(C)S(=O)(=O)N1CCc2ccc(NC(=O)c3ccc(C(F)(F)F)cc3)cc2C1
    0.8	i	0.71	2.3	x	-4.0	-5
> Cc1cccc(N(Cc2ccccc2)C(=O)CN2C(=O)NC3(CCCC3)C2=O)c1
    2.0	i	0.61	1.5	13	4.6	-5
> O=C1NC(N2CCOCC2)=N/C1=C/c1ccc2c(c1)OCO2
    -2.0	i	0.73	5.3	x	-7.1	-2
> CN(C)CCNC(=O)/C(=C/c1ccc(-c2ccc(Cl)cc2Cl)o1)NC(=O)c1ccccc1
    3.3	x	0.59	-8.4	x	0.5	-1
> Nc1c(C(=O)NCCc2ccc(Cl)cc2)sc2ccc(S(=O)(=O)N3CCCCC3)cc12
    x	i	x	x	-7	-0.7	x
> c1cc2c(cc1CNc1ccc(N3CCOCC3)cc1)OCO2
    0.7	i	0.71	5.5	98*	2.1	9
> Nc1scn[n+]1Cc1cccc2cccnc12
    3.0	i	0.65	0.6	-22	0.1	-7
> CC1(C)CSC(=S)N1S(=O)(=O)c1ccccc1
    -1.3	x	0.69	4.9	-5	2.4	4
> CCOc1ccc(CN2C(=O)c3ccccc3Sc3ccc(C(=O)NCCCN4CCOCC4)cc32)cc1
    4.3	i	0.66	2.9	-3	-0.2	16

# Source: PubChem
